# GIV-Gai inh: blocks GIV peptide binding to rat Galpha-i3. P08753. Galpha-i3/FITC-GIV peptide fluorescence polarization, 90 min; stronger effect = lower value; scaled: aluminum fluoride 0%, vehicle 100%. percent of control (FP), % (concentration not given with the values). 0.42% of 210,000 active. AID 1224905;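 active = replicate mean at 85% of control or lower, very high polarization wells dropped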;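 also: wells of about 15 µL received 100 nL stock; the first replicate is given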
# Target sequence (P08753 whole entry, looked up): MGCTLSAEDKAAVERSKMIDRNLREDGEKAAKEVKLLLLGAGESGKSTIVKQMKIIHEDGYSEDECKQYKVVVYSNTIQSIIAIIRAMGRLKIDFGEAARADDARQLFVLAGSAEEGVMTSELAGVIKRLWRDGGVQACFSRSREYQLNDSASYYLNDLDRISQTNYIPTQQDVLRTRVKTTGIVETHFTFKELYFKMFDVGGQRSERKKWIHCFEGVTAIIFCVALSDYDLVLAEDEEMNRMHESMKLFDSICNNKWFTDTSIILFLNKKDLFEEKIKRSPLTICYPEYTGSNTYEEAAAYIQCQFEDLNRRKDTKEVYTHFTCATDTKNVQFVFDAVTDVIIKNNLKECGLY
# Sa growth 42C: S. aureus growth inhibition | S. aureus RN4220 growth, OD600, 20 h, 42 °C; stronger effect = lower value | relative growth, % (concentration not given with the values) | 0.53% of 170,000 active;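 active = growth at 42 °C up to 50% and 20 or more points under that at 30 °C, or under 10% at both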;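 also: 300 nL library stock went into each well; scaled to the means of positive and negative controls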
# HCMV NEC inh: disrupts HCMV UL50-UL53 complex binding. 0.15% of 190,000 active. AID 1918969. HTRF UL50-UL53 interaction, normalized percent inhibition. inhibition, % (test concentration not listed);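 active = both replicates at 50% or more, plus weaker picks with an unusually low signal ratio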;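 also: stock transfer was 100 nL into about 20 µL; 0% = negative control wells and 100% = wells with untagged competitor protein; inactives centre near -12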
# Sa growth 42C second temp: recorded beside Sa growth 42C, whose call it bears; relative growth, %; measured here: growth at 30 °C;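 optical density after 20 h as mean of two plates; 100% = untreated growth and lower means inhibition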
# Active calls of the source: *; . = no result given; & = joins results of further samples. Hits appear at their usual frequency; 0.82% or so of the library scored in one or more.
SMILES,GIV-Gai inh,Sa growth 42C,Sa growth 42C second temp,HCMV NEC inh
O=C(CSc1ncnc2c1nnn2-c1ccc(F)cc1)NC1CCCCC1,105,98,89,-34
CCOc1ccccc1C(=O)NCC(c1ccc(N(C)C)cc1)N(C)C (configuration not stated),104,.,.,0
COc1ccc(OC)c(S(=O)(=O)N(C)CC(=O)N2CCN(c3ccc(F)cc3)CC2)c1,103,100,98,-4
Cc1ccc(-c2cc(C(F)(F)F)n3ncc(-c4ccccc4)c3n2)cc1,106,106,87,-19
O=S1(=O)CCC(N2CCOCC2)C1 (configuration not stated),.,102,89,-4
COC(=O)c1ccc(CSc2nc(-c3ccccc3)cs2)o1,.,103,88,-6
CN1C(=O)C=CC1=O,103,97,91,-18
CCCCN(C)C(=O)c1ccc(N2CCNCC2)c(NS(=O)(=O)c2ccc(F)cc2)c1,103,.,.,-18
Cc1nnc(SCc2ccc(F)cc2)s1,.,97,95,4
COc1ccccc1NC(=O)NN1CCCCC1,.,100,96,12
NC(=O)N/N=C/c1ccc([N+](=O)[O-])o1,.,2.5*,-0.6*,-89&-125
O=C(O)c1ccc(C(=O)NCc2ccco2)c(C(=O)O)c1,107,104,93,-17
O=C(NCc1ccc2c(c1)CCN2C(=O)c1ccncc1)c1ccc(Cl)cc1,107,112,84,.
O=C(NCCCN1CCCC1=O)c1ccc2c(c1)NC(=O)c1ccccc1S2,106,94,97,7
CCn1c(=O)cc(N2CCN(c3ccccc3)CC2)[nH]c1=O,97,91,86,.
Cc1cccc(NC(=O)C(F)(F)C(F)(F)C(F)(F)F)n1,65*,108,93,4
CC1(C)O[C@H]2[C@@H](O1)[C@@H](C(=O)Nc1ccc(F)c(F)c1)O[C@@H]1OC(C)(C)O[C@@H]12,107,102,88,-6
Cc1ccc(/C=C2\C(=O)N(c3ccccc3)c3ccccc32)o1,.,99,99,-15
COC(=O)c1cc(-c2ccccc2)n(C)c1C,107,106,93,-1
Cc1cc2nc(CSc3nnc(NC(=O)COc4ccc(F)cc4)s3)cc(=O)n2o1,101,.,.,18
Cc1ccc(S(=O)(=O)N(CCC(C)C)c2nc3nc(C)c(Cl)c(C)n3n2)cc1,100,.,.,-8
Cc1ccc2cccc(OC(=O)c3cccnc3Oc3ccccc3)c2n1,102,96,85,.
CC1Cc2ccccc2N1C(=O)CN(Cc1ccco1)S(=O)(=O)/C=C/c1ccccc1 (configuration not stated),.,94,83,-30
C=C1C(C(=O)Nc2ccc(OC)cc2)C1C(=O)Nc1ccc(OC)cc1 (configuration not stated),.,111,85,-11
Cc1ccc(C)c(NC(=O)CN2C(=O)c3cccc4cccc2c34)c1,102,90,89,-18
COCCOC(=O)c1c(C)oc2cc(Br)c(OC(=O)c3ccc(OC)c(OC)c3)cc12,105,97,91,-22
N#Cc1ccc(OCc2ccc(C(F)(F)F)cc2)c(Cl)c1,106,88,85,-12
Cc1ccc(NCC(=O)N2CCN(c3ncccn3)CC2)cc1,.,74,92,-13
O=c1c2ccccc2n(Cc2ccccc2Cl)c(=O)n1CCc1ccccc1,104,88,94,-9
CCOC(=O)c1c(NC(=O)c2cc(OC)c(OC)c(OC)c2)sc(C(=O)Nc2ccccc2C(F)(F)F)c1C,104,.,.,-1
C=CCSc1ncc(C(=O)OCC)c(N)n1,109,107,96,-2
CCOc1ccc(-n2c(C)nc3cc(C(=O)NC4CCCC4)ccc32)cc1,101,84,70,.
O=C(CSc1nnc(Cc2ccccc2)n1Cc1ccccc1)Nc1nccs1,97,105,97,0
O=C(Nc1ccccn1)c1cccc(N2C(=O)CCC2=O)c1,.,95,78,-11
CCOC(=O)CSc1nc2sc3c(c2c(=O)n1-c1ccc(OC)cc1)CC(C)(C)OC3,104,.,.,-10
CCOc1ccc(-c2cn(-c3ccc(OC)cc3)c(SCC(=O)Nc3ccccc3Cl)n2)cc1,105,104,93,.
CCOC(=O)N1CCN(C(=O)CN(c2ccc(Cl)c(C(F)(F)F)c2)S(C)(=O)=O)CC1,100,101,95,-17
Cc1ccccc1CNC(=O)C(=O)NCC(c1ccco1)S(=O)(=O)c1ccc(F)cc1 (configuration not stated),94,113,88,.
CCCC1c2ccsc2CCN1C(=S)NC (configuration not stated),105,107,90,-12
CC(C)CC(C(N)=O)C1=NC(C)(C)Cc2ccccc21 (configuration not stated),.,90,84,-10
NC(=O)CSCC(=O)Nc1ccccc1,.,100,82,-27
OC[C@@H](O)[C@@H](O)[C@H](O)[C@@H](O)CO,.,93,97,-45
Cc1c(-c2cccc(Cl)c2)nc2ccccc2c1C(=O)N1CC(C)OC(C)C1 (configuration not stated),.,96,86,-24
Cc1ccc2c(CSc3nnc(C4CC4)n3N)cc(=O)oc2c1,.,87,90,-28
CC(C)(C)c1ccc(-c2nc(SCC(=O)Nc3ccccc3F)n3[nH]c(=O)cc3n2)cc1,99,71,77,.
CCOC(=O)c1cc(C#N)c(N2CCNCC2)nc1C(F)(F)F,106,89,79,-42
CCOC(=O)CN1C(=O)S/C(=C/c2cc(C)n(-c3cc(C)ccn3)c2C)C1=O,100,118,90,.
Cc1cc2[nH]c(=O)[nH]c2cc1NS(=O)(=O)c1ccc(Br)cc1,109,.,.,-25
Nc1ccc2nc(CO)[nH]c2c1,102,110,87,3
COc1ccccc1CCNC(=O)CSc1ccc(-c2ccco2)nn1,110,119,56,.
COc1cc(OC)c(NC2=C(c3ccc(C(F)(F)F)cc3)C(=O)c3ccccc32)cc1Cl,102,106,93,-12
N#Cc1cccc(NC(=O)CCNC(=O)c2ccccc2)c1,.,74,81,-30
CN(C)c1cccc2c1c(NC(=O)Nc1ccccc1)nn2C,102,84,82,-16
O=C(c1ccc(Cl)cc1)N(CCS(=O)(=O)c1ccc(Cl)cc1)Cc1cccs1,104,105,88,-11
CCN1CCC[C@H]1CNC(=O)c1c(OC)ccc(Br)c1OC,95,99,91,-36&2&0
O=C(OCc1cc(=O)oc2cc(O)ccc12)C1CCN(S(=O)(=O)c2ccccc2)CC1,.,99,53,0
CC1(C)Cc2c(c(N3CCOCC3)nc3sc(C#N)c(N)c23)CO1,.,91,81,-8
CCOc1ccc(-c2nc(CSc3nc4c(c(=O)[nH]3)CCC4)c(C)o2)cc1,103,.,.,-31
CCN1C(=O)c2ccccc2S(=O)(=O)c2ccc(C(=O)N3CCN(c4cccc(Cl)c4)CC3)cc21,107,.,.,7
COC(=O)c1c(C)[nH]c(C)c1/C=C(\C#N)S(=O)(=O)c1ccc(Cl)cc1,108,107,87,-26
# Carrying on:
SMILES,GIV-Gai inh,Sa growth 42C,Sa growth 42C second temp,HCMV NEC inh
Cc1cc(C)c2c(=O)n(C(=O)c3cccs3)sc2n1,153,108,81,-35
COC(=O)c1c(N)n(C)c2nc3ccccc3nc12,105,78,66,-61
Cc1ccc(OC(=O)c2ccccc2)c(C(C)(C)C)c1,.,106,117,0
Cc1cc2c(cc1S(=O)(=O)NCc1ccc(N(C)C)cc1)OCC(=O)N2,106,111,96,.
COc1cccc(C(=O)N2N=C(c3ccncc3)CC2(O)C(F)(F)F)c1 (configuration not stated),103,.,.,-19
Cc1cc(-n2c(SCC(=O)Nc3nccs3)nc3ccsc3c2=O)ccc1Cl,102,100,87,2
CC1(C)Cc2c(c(N3CCOCC3)nc3sc4c(Cl)nnnc4c23)CS1,.,95,93,-10
CCOC(=O)c1cc(C)n(CC2CCC(C(=O)Nc3ccccc3)CC2)c1C (configuration not stated),110,98,98,.
O=C(O)c1cc(S(=O)(=O)N(Cc2ccco2)S(=O)(=O)c2ccc3c(c2)OCCO3)c(Cl)cc1Cl,.,101,99,-8
CN(C)CC1CCCCC1OC(=O)c1cc2ccccc2o1 (configuration not stated),.,97,95,3
O=C(CCn1c(=O)c2cccn2c2cccnc21)NCc1ccccc1Br,103,122,88,.
CCOc1ccc(-c2c(C)nn3c(C)c(C(=O)Nc4ccc(OC)cc4)cnc23)cc1OCC,111,.,.,-9
O=C(CSc1nnc2n(Cc3ccccc3)c(=O)c3c4c(sc3n12)CCCC4)c1ccccc1,110,.,.,10
Cc1ccc2oc(=O)c3cc(C(=O)Nc4nc(C)cs4)sc3c2c1,103,.,.,-24
CCC1SC(=S)N(CC(=O)O)C1=O (configuration not stated),101,115,71,4
NC(=O)c1ncc(C(F)(F)F)cc1SCc1ccc(Cl)cc1,109,.,.,-11
Cc1ccc(CNC(=O)CSc2c3c(nc4cc(Cl)ccc24)CCCC3)cc1,103,100,87,-39
CC1CCc2c(sc3ncnc(SCc4ccco4)c23)C1 (configuration not stated),.,94,88,-1
CCCCOc1ccc(CNC(=O)Cn2ncn3c(cc4cc(F)ccc43)c2=O)cc1,99,124,88,-22
O=S(=O)(NC12CC3CC(CC(C3)C1)C2)c1ccc2c(c1)OCCO2,.,93,76,-3
CC(C)NC(=O)c1cn(C2CCCCC2)c(=O)c2c1c1ccccc1n2C,95,88,95,.
Cc1ccc(S(=O)(=O)C2CS(=O)(=O)c3ccccc32)cc1 (configuration not stated),104,125,94,-1
COC(=O)c1sccc1S(=O)(=O)N(CC(=O)NCc1ccccc1)c1ccccc1,104,109,88,.
COc1ccc(C2=NN(C(=O)c3ccc(Br)o3)C(c3ccc(C)cc3)C2)cc1 (configuration not stated),105,.,.,-20
CCOC(=O)c1c(C)n(C)c2c1cc(OC(=O)c1cccc(Cl)c1)c1ccccc12,102,.,.,-14
O=C(/C=C/c1ccc(F)cc1)N1CCN(C/C=C/c2ccccc2)CC1,102,103,82,-33
COc1ccc(CCNC(=O)c2ccc3c(c2)sc2nc(-c4ccc(C)cc4)cn23)cc1OC,107,99,77,.
COc1cc(/C=C(\NC(C)=O)C(=O)O)ccc1OCc1ccccc1,124,104,104,-2
CC(Sc1nc(-c2ccccc2)c(C#N)c(=O)[nH]1)C(=O)Nc1ccc(F)cc1 (configuration not stated),104,108,95,-12
O=C(COc1ccc2c3c(c(=O)oc2c1)CCC3)Nc1ccccc1N1CCOCC1,.,93,91,-35
COCc1cc(C)nc(N2CCOCC2)c1C#N,102,128,93,.
CC(CCc1ccco1)NC(=O)c1cccc2c1C(=O)N(C1CCCCC1)C2 (configuration not stated),97,82,73,.
Cn1c(Cc2cccs2)nnc1SCC(=O)c1ccc2c(c1)OCO2,.,103,92,-22
COc1ccc(OCCCCn2c(C3CC(=O)N(c4cccc(Cl)c4)C3)nc3ccccc32)cc1 (configuration not stated),107,99,85,-28
CCn1c(=O)c(N2CCC(C(=O)NCCc3cccc(OC)c3)CC2)nc2cccnc21,98,.,.,-32
N#Cc1nc(COc2ccccc2Cl)oc1NCCc1ccccc1,102,90,86,-10
C=CCN1C(=O)/C(=c2\sc3n(c2=O)C(c2ccc(OC)c(OC)c2)C(C(=O)OCC)=C(C)N=3)c2ccccc21 (configuration not stated),106,.,.,-25
CC(=O)OCC1OC(OC(C)=O)C(O)C(OC(C)=O)C1OC(C)=O (configuration not stated),98,94,96,-23
O=C(Nc1ccc2[nH]ncc2c1)C1CCC1,110&105,104,102,-5&-19
COc1ccc(NC(=O)C2CCN(c3ncccc3-n3c(C)ccc3C)CC2)cc1,112,.,.,15
COc1cc(NC(=O)CS(=O)(=O)c2ccc3c(c2)S(=O)(=O)N=C(C)N3)cc(OC)c1,101,.,.,-27
CC1=C(c2ccc(C(C)C)cc2)S(=O)(=O)N(CC(=O)NCCCc2ccccc2)C1=O,97,.,.,-26
CC(C)Cn1c(=O)n(C)c(=O)c2[nH]cnc21,99&103,85,87,-42&-8&-8&-19&-13&4
COc1ccc(C2c3cc(OC)c(OC)cc3CC(=O)N2c2ccccc2)cc1OC (configuration not stated),106,.,.,3
Cc1ccc(C)c(C(=O)N(CCC#N)Cc2cccnc2)c1,.,109,96,-13
O=C(NC1CCCCC1)c1ccc2c(c1)N(Cc1ccc(Cl)cc1)C(=O)c1ccccc1S2(=O)=O,101,100,81,-24
CN(C(=O)Nc1ccc(Cl)cc1)C1CC2C=CC1C2 (configuration not stated),102,109,90,-24
Cc1ccc(C(=O)Nc2ccc3c(c2)NC(=O)C(C)O3)cc1 (configuration not stated),109,.,.,-28
